High-throughput results as filed in PubChem BioAssay.
liver stage: Plasmodium liver-stage growth inhibition, dose response, imaging, Malaria Box, P. yoelii, HepG2-A16-CD81EGFP (AID 602156); calls after a first round at 10 µM; hits with a dose series show IC50 in µM; 4.8% of 5,700 active; P. yoelii liver stage in HepG2-A16-CD81EGFP, imaging; first-round cut-off not given here; in the data active = a potency from the dose series;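 also: infected cells exposed to compound for 48 hours before fixation; stained parasite area by imaging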
Starred values were filed as active, the others as inactive; i = inactive. Some of the compounds tested. The share of hits here may be higher or lower than overall.

SMILES	liver stage
COc1ccc(Nc2nc(-c3cc4cc(OC)ccc4oc3=O)cs2)c(OC)c1	i
COc1cc2c(-c3cc(Br)ccc3O)nc3c(c(-c4ccccc4)nn3-c3ccccc3)c2cc1OC	i
COc1ccccc1CCNCc1cc(-c2ccc(F)cc2)ccc1O	i
CC(=O)N1c2ccccc2CC1C(=O)NCc1cccc(Cl)c1 (stereo not given)	i
Cc1cccn2c(=O)c3cc(C(=O)NCc4ccco4)c(=N)n(CCc4ccccc4)c3nc12	i
CCOC(=O)c1cccc(NC(=O)CC2C(=O)N(c3ccccc3)C(=O)N2C2CCCC2)c1 (stereo not given)	i
CCOc1ccc(N(C(C)=O)C2=C(N3CCN(C)CC3)C(=O)c3ccccc3C2=O)cc1	i
FC(F)(F)c1cccc(-c2cncc(N3CCN(c4ccccn4)CC3)n2)c1	i
COC(=O)C1=C(O)C(=Cc2cc(C)n(-c3cc(C)ccc3OC)c2C)N=C1C	i
Cc1ccc(N2C3c4ccccc4N(S(=O)(=O)c4ccc(C)cc4)C2c2ccccc2N3S(=O)(=O)c2ccc(C)cc2)cc1	i
CCCC(C(=O)NCCC(C)C)N(C(=O)c1snc(C(N)=O)c1N)c1ccc(C(C)C)cc1 (stereo not given)	i
CCCCCCc1cc2cc(-c3nc4ccccc4[nH]3)c(=Nc3ccccc3C)oc2cc1O	i
O=C1C2C3c4ccccc4C(c4ccccc43)C2C(=O)N1CCO (stereo not given)	i
O=C1CN(C(=O)CCC2CCCCC2)C(c2ccc(F)cc2)c2cc(F)ccc2N1 (stereo not given)	i
Cc1cccc(Nc2c3c(c(C#N)c4nc5ccccc5n24)CCC3)c1	i

Reprinted from the part before: 3 compounds; new compounds follow.
SMILES	liver stage
O=C1C2C3c4ccccc4C(c4ccccc43)C2C(=O)N1CCO (stereo not given)	i
O=C1CN(C(=O)CCC2CCCCC2)C(c2ccc(F)cc2)c2cc(F)ccc2N1 (stereo not given)	i
Cc1cccc(Nc2c3c(c(C#N)c4nc5ccccc5n24)CCC3)c1	i
CCC(Oc1ccc(C(C)(C)CC)cc1C(C)(C)CC)C(=O)Nc1ccc([N+](=O)[O-])cc1O (stereo not given)	i
COc1cc(OC)cc(-n2nc(C(=O)NC3CCCCC3)c3ccccc3c2=O)c1	i
COc1cc(CN2CCC3(CC2)CC3C(=O)NCCc2ccccc2OC)ccc1O (stereo not given)	i
CCc1ccc(NC(=O)COC(=O)c2cccs2)cc1	i
COc1ccc(CN2CCN(Cc3ccc(OC)c(C)c3C)C(CCO)C2)c(O)c1 (stereo not given)	i
Cc1ccc(C)c(N2CCN(CCCNC(=O)c3ccc(CSc4nc5ccncc5[nH]4)cc3)CC2)c1	i
CCOC(=O)C1=C(C)NC2=C(C(=O)CC(c3ccc(OC)c(OC)c3)C2)C1c1ccc(Cl)c(Cl)c1 (stereo not given)	i
COc1ccc(-c2c[n+]3c(n2-c2ccccc2)SCC3)cc1	i
CCc1ccc(-n2c(C(CC)N(CCC(C)C)C(=O)Nc3ccc(Cl)c(Cl)c3)nc3ccccc3c2=O)cc1 (stereo not given)	i
C[n+]1c(/C=C/c2ccc(F)cc2)ccc2ccccc21	i
CCc1c(C)c(C#N)c2nc3ccccc3n2c1Nc1ccc(C)c(Cl)c1	i
O=C(CN1C(=O)c2ccccc2C1=O)Nc1cc(Cl)ccc1C(=O)O	i
COc1ccc(C2Nc3ccc([N+](=O)[O-])cc3C3C=CCC32)cc1[N+](=O)[O-] (stereo not given)	i
CCOC(=O)c1ccc(Nc2nc(N)c3cc(OC)c(OC)cc3n2)cc1	i
O=C(NC1CCN(CC(O)CN(Cc2ccccc2)S(=O)(=O)c2ccccc2)C1)C1CCCCC1 (stereo not given)	i
COC(=O)C1=C(C(=O)OC)SC(=C2C(=S)C(C)(C)Nc3cc(C)ccc32)S1	i
O=C1N(c2ccccc2)C[C@@H]2C[C@@H](c3ccc(C#CCCO)cc3)N3CCC[C@@]123	i
Cc1ccc(-c2cc(C)[n+](C)c(-c3ccc(C)cc3)c2)cc1	i
O=C(NNc1cccc(F)n1)C(F)(F)F	i
COc1cccc(C(C(=O)NC2CCCCC2)N(C(=O)c2snc(C(N)=O)c2N)c2ccc(C)cc2)c1OC (stereo not given)	i
O=C1CC(c2cccc([N+](=O)[O-])c2)c2cc3c(cc2N1)OCO3 (stereo not given)	i
COC(=O)c1c(S(=O)(=O)NCCc2ccccc2)sc2c1CCN(Cc1cccnc1)C2	i
Cc1sc2nc(C3CC3)n(C3CCN(C(=O)C4CC=CCC4)CC3)c(=O)c2c1C (stereo not given)	i
Cc1ccc(-c2nn(CC(=O)Nc3cccc(C)c3)c(=O)c3ccccc23)cc1	i
O=C1C=C(Nc2ccc(Cc3ccncc3)cc2)c2ccccc2C1=O	i
COc1ccc(C(=O)NCCc2ccc(C)cc2)cc1OC1CCN(C(C)=O)CC1	i
CCC[n+]1ccc(/C=C/c2ccc(Br)cc2)cc1	i
CSc1ccc(Cl)c(Cl)c1	i
O=C(Nc1ccc(NC(=O)Nc2ccc(C3=NCCN3)cc2)cc1)Nc1ccc(C2=NCCN2)cc1	i
CCOc1cccc2c1N(C(=O)c1ccc(C)cc1)C(C)(C)C1=C2C2(SC(C(=O)OC)=C(C(=O)OC)S2)C(C(=O)OC)=C(C(=O)OC)S1	i
CCCn1c(-c2cccc(Br)c2)nc2ccccc21	i
CCN(CC)CCCC(C)Nc1cc(/C=C/c2ccc([N+](=O)[O-])cc2)nc2ccc(OC)cc12 (stereo not given)	i
C=CCc1cc(C=c2sc3n(c2=O)C(c2ccc(Cl)cc2)C(C(=O)OCC)=C(C)N=3)cc(OC)c1O (stereo not given)	i
CCCN1CCC(N2C[C@@H](NC3CCCCCCC3)C[C@H]2C(=O)NCCc2ccc3c(c2)OCO3)CC1	i
CCOc1ccccc1-n1c(C(C)N(CCc2ccccc2)C(=O)c2ccc(Br)cc2)nc2ccccc2c1=O (stereo not given)	i
CCCCCC(=O)N(CCN(C)C)C(CC)c1nc2ccccc2c(=O)n1-c1ccc(F)cc1 (stereo not given)	i
CCOC(=O)c1cnc2c(C)cc(Cl)cc2c1Nc1ccc(OC)c(OC)c1	i
Oc1ccc2cc(-c3nc4ccccc4[nH]3)c3nc4ccccc4n3c2c1	i
CC(C(=O)NCCCN)N(Cc1ccccc1)S(C)(=O)=O (stereo not given)	i
Oc1ccc(C(CCNCCc2c[nH]c3ccccc23)c2ccccc2)cc1 (stereo not given)	i
CC(=O)NC(CO)C(O)c1ccc([N+](=O)[O-])cc1 (stereo not given)	i
CCOC(=O)C1=C(C)N=c2sc(=Cc3c4ccccc4cc4ccccc34)c(=O)n2C1c1cc(OC)ccc1OC (stereo not given)	i
Cc1ccnc(NS(=O)(=O)c2ccc(NC(=O)C(C)C)cc2)n1	i
N#C/C(=C\n1cc(Cc2ccc(Cl)cc2Cl)c2ccccc21)c1nn(CCO)c(N)c1C#N	i
Cc1ccccc1C[n+]1cc(-c2ccc(Cl)cc2)n2c1CCC2	i
CCOC(=O)c1nc2nc(C)cc(=O)n2[nH]1	i
COc1ccccc1N1CCN(c2ccc(NC(=O)c3ccc(Br)cc3)cc2C(=O)NCCCN(C)C)CC1	i
c1ccc(Nc2nc(NCC3CCCO3)c3ccccc3n2)cc1 (stereo not given)	i
O=[N+]([O-])c1ccc(-c2ccc(C=NNc3ccccn3)o2)cc1	i
CCCC(=O)N1CCN(c2nc(Cc3ccccc3)c3c(c2C#N)CC(C)(C)OC3)CC1	0.348µM*
NC(N)=NN=Cc1cccc(OCc2ccc(Cl)c(Cl)c2)c1	i
COc1cccc(C(=O)NCc2n[nH]c(=S)n2-c2ccc(Cl)c(Cl)c2)c1	i
O=C(Nc1ccccc1)/C(=C\c1ccncc1)NC(=O)c1ccccc1	i
COC(=O)C1=C(C(=O)OC)SC(=C2C(=S)C(C)(C)N(C(=O)c3ccc([N+](=O)[O-])cc3)c3ccc(C)cc32)S1	i
O=C(C[n+]1ccccc1)NN=Cc1ccc(Cl)c(Cl)c1	i
O=C(CSc1nnc2c(n1)[nH]c1ccccc12)Nc1ccc([N+](=O)[O-])cc1	i
CCCCSCC(O)CN1CCCCC1 (stereo not given)	i
Cc1cc(-c2cncnc2C2CCN(C(=O)c3cc(C(C)C)[nH]n3)CC2)on1	i
COc1cc(C=NNc2nc3ccccc3[nH]2)cc(OC)c1OC	i
O=C(NN=Cc1c(O)ccc2ccccc12)c1cccnc1	i

Among those listed so far, these have a nitro group on carbon:
SMILES	liver stage
CCC(Oc1ccc(C(C)(C)CC)cc1C(C)(C)CC)C(=O)Nc1ccc([N+](=O)[O-])cc1O (stereo not given)	i
COc1ccc(C2Nc3ccc([N+](=O)[O-])cc3C3C=CCC32)cc1[N+](=O)[O-] (stereo not given)	i
O=C1CC(c2cccc([N+](=O)[O-])c2)c2cc3c(cc2N1)OCO3 (stereo not given)	i
CCN(CC)CCCC(C)Nc1cc(/C=C/c2ccc([N+](=O)[O-])cc2)nc2ccc(OC)cc12 (stereo not given)	i
CC(=O)NC(CO)C(O)c1ccc([N+](=O)[O-])cc1 (stereo not given)	i
O=[N+]([O-])c1ccc(-c2ccc(C=NNc3ccccn3)o2)cc1	i
COC(=O)C1=C(C(=O)OC)SC(=C2C(=S)C(C)(C)N(C(=O)c3ccc([N+](=O)[O-])cc3)c3ccc(C)cc32)S1	i
O=C(CSc1nnc2c(n1)[nH]c1ccccc12)Nc1ccc([N+](=O)[O-])cc1	i

More structures:
SMILES	liver stage
NC(=O)NN=C1c2cc(S(=O)(=O)NCc3ccco3)ccc2-c2ccc(S(=O)(=O)NCc3ccco3)cc21	i
O=C1c2ccccc2-c2nc3nnnn3nc21	i
CCCCN(C)Cc1cc(-c2cccc(OC)n2)ccc1O	i
Cc1ccc(C)c2[nH]c(=O)c(CN(Cc3ccccc3)C(=S)NCCCN(C)C)cc12	i
CSc1nnc(CN2CCSCC2)n1C	i
CCCCc1ccc(C(=O)N(C)CCCNc2ccnc3cc(Cl)ccc23)cc1	i
c1ccc2cc3c(N4CCN(CCCN5CCN(c6ccnc7cc8ccccc8cc67)CC5)CC4)ccnc3cc2c1	i
Cc1ccc(Nc2nc(NCCO)c3ccccc3n2)cc1C	i
OCC1CCCN1c1nccnc1-c1ccccc1Oc1ccccc1 (stereo not given)	i
COC(=O)C1=C(C)NC2=C(C(=O)CC(c3ccccc3)C2)C1c1cc(C)sc1SC (stereo not given)	i
CCCCCc1ccc(OCCOCC[n+]2ccccc2)c(CCCCC)c1	i
O=C(NCCCCNc1ccnc2cc(Cl)ccc12)c1ccccc1Cl	i
COc1cc2c(cc1OC)C1=NNC(=O)C1=NC(C)(C)C2	i
Cc1nc2c(c(C)nn2C)c(C)c1CCC(=O)N1CCCC1	i
O=c1cc(C(F)(F)F)c2cc(Cl)c(O)cc2o1	i
O=C(CCl)Nc1ccc(OC(F)F)cc1	i
CCCCCCCCC(=O)Oc1ccccc1-c1nc2cc(C)ccn2c1NC(C)(C)CC(C)(C)C	i
COc1ccc(C2CC(=O)C3=C(C2)NC(C)=C(C(=O)OC(C)C)C3c2ccccc2F)cc1OC (stereo not given)	i
CCCCCCN(CCCCCC)CC(O)c1cc(-c2ccc(Cl)cc2)nc2c(C)cc(C)cc12 (stereo not given)	i
COC(=O)c1cccc(NC(=O)C(=Cc2cccc([N+](=O)[O-])c2)NC(=O)c2ccccc2OC)c1	i
Cc1cc(Cl)ccc1OC(C)C(=O)N1CCc2ccccc21 (stereo not given)	i
O=[N+]([O-])c1cc(C(F)(F)F)ccc1N1CCCN(C(=S)Nc2cccc(C(F)(F)F)c2)CC1	i
CCN(CC)CCCC(C)Nc1ccnc2cc(Cl)ccc12 (stereo not given)	i
Fc1ccc(C(CCNc2ncnc3c2[nH]c2ccccc23)c2ccco2)cc1 (stereo not given)	i
CC(C)(C)c1ccc(Oc2ccc(N3C(=O)C4CC=CCC4C3=O)cc2)cc1 (stereo not given)	i
COc1cccc(CNC(=O)C2CNCC2c2ccc(C(F)(F)F)cc2)c1 (stereo not given)	0.857µM*
COc1ccc(CN(C=O)/C=C2\Sc3ccccc3C2=O)cc1OC	i
CCCC(=O)NC(c1ccc(Cl)cc1)c1ccc2cccnc2c1O (stereo not given)	0.19µM*
CCOc1ccc(Nc2ccnc3cc(Cl)ccc23)cc1	i
CCCCNC(=O)C(c1cccc(OC)c1)N1C(=O)c2cc(OCCCC)ccc2NC(=O)C1CO (stereo not given)	i
Cc1cc(/C=C2\Sc3ccccc3N2C)[n+](C)c2ccccc12	i
COc1cccc(NC(=O)c2cccc3c(=O)c4c([nH]c23)CCCC4)c1	i
CCOc1ccc(CCNC(=O)c2cccs2)cc1OCC	i
N#Cc1c2c(c(N3CCN(c4ccccn4)CC3)n3c1nc1ccccc13)CCC2	i
OC(CN1CCN(C/C=C/c2ccccc2)CC1)Cn1c2ccc(Cl)cc2c2cc(Cl)ccc21 (stereo not given)	i
COc1ccc(OC)c(/C=C/C(=O)Nc2ccc3nc(N4CCN(C)CC4)cc(C)c3c2)c1	i
Cc1ccc2nc(C)cc(NCCN(C)C)c2c1	i
CCOc1ccc(OCc2n[nH]c(=S)n2N)cc1	i
O=C(Nc1ccc(Nc2cc([N+](=O)[O-])ccc2O)c2c1C(=O)c1ccccc1C2=O)c1ccccc1	i
Brc1ccc2ncnc(NCC3CCCO3)c2c1 (stereo not given)	i
Cc1ccccc1NC(=O)N(CCCNC(=O)CCl)c1ccccc1	i
O=C(CN1C(=O)C2C3CCC(C3)C2C1=O)N1CCCC(c2ncncc2-c2ccncc2)C1 (stereo not given)	i
CCC1CCCCN1S(=O)(=O)c1cc(Br)cc2c1N(C(=O)C1CC1)CC2 (stereo not given)	i
CSC1=C(C#N)C(c2ccc(O)cc2)CC(=O)N1 (stereo not given)	i
